Compound activity (PubChem)
Ran FRET: inhibitors of Ran–importin-beta complex formation, primary screen, biochemical, CFP-Ran/YFP-importin-beta FRET, RCC1, cell-free (AID 434961). CFP-Ran/YFP-importin-beta FRET, cell-free; stronger effect = higher value. inhibition, %. 7,700 compounds, 0.2% hits;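 active = more than half of the replicate wells above 15% inhibition; inconclusive = exactly half above it; inactive = fewer than half above it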;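 also: 0% = DMSO wells and 100% inhibition = RanGDP control wells on each plate; stock of unstated strength diluted about 400-fold; mean of two wells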
* = called active by the depositor; ? = inconclusive. Only part of the results is shown; rates above refer to the full screens.

canonical_smiles	Ran FRET
CC(C)NC(=O)N(C)C[C@@H]1Oc2ccc(NC(=O)CCN3CCOCC3)cc2C(=O)N([C@@H](C)CO)C[C@@H]1C	5.2
C[C@@H]1CCCCO[C@H](CN(C)C(=O)Nc2cccc3ccccc23)[C@@H](C)CN([C@@H](C)CO)C(=O)c2cc(N(C)C)ccc2O1	-4.9
C[C@H]1CN([C@@H](C)CO)C(=O)c2cc(NC(=O)C3CC3)ccc2O[C@@H]1CN(C)Cc1ccncc1	-5.9
C[C@@H]1CN([C@@H](C)CO)C(=O)Cc2cc(NS(C)(=O)=O)ccc2O[C@@H]1CN(C)C(=O)NC1CCCCC1	-0.6
C[C@H](CO)N1C[C@H](C)[C@@H](CN(C)C)OCCCC[C@H](C)Oc2ccc(NC(=O)CCC(F)(F)F)cc2C1=O	-2.4
C[C@@H]1CN([C@@H](C)CO)C(=O)c2cc(NS(=O)(=O)c3ccccc3)ccc2O[C@@H](C)CCCCO[C@@H]1CN(C)Cc1ccncc1	-0.9
Cc1noc(C)c1NC(=O)N(C)C[C@H]1Oc2ccc(NS(C)(=O)=O)cc2CC(=O)N([C@H](C)CO)C[C@H]1C	5.1
C[C@@H]1CCCCO[C@@H](CN(C)C(=O)CCC(F)(F)F)[C@H](C)CN([C@@H](C)CO)C(=O)c2cc(NC(=O)Cc3ccccc3)ccc2O1	-1.2
Cc1noc(C)c1NC(=O)N(C)C[C@H]1Oc2c(NC(=O)C3CCOCC3)cccc2C(=O)N([C@H](C)CO)C[C@@H]1C	-0.4
COc1ccc(CN(C)C[C@H]2Oc3ccc(NS(=O)(=O)c4ccc(Cl)cc4)cc3C(=O)N([C@@H](C)CO)C[C@H]2C)cc1	4.5

Continuation.
canonical_smiles	Ran FRET
CNC[C@@H]1Oc2ccc(NC(=O)Cc3ccccc3)cc2CC(=O)N([C@@H](C)CO)C[C@H]1C	-2.1
C[C@H](CO)N1C[C@H](C)[C@@H](CN(C)C(=O)Nc2ccccc2)Oc2ccc(NC(=O)Cc3ccccc3)cc2CC1=O	-7.0
C[C@H](CO)N1C[C@H](C)[C@@H](CN(C)C)Oc2ccc(N(C)C)cc2C1=O	0.0
CNC[C@@H]1Oc2ccc(NC(=O)Nc3ccc(C(F)(F)F)cc3)cc2CC(=O)N([C@H](C)CO)C[C@@H]1C	-2.5
C[C@H]1CN([C@@H](C)CO)C(=O)c2cccc(NS(=O)(=O)c3ccc(F)cc3)c2O[C@@H]1CN(C)Cc1ccc(C(F)(F)F)cc1	0.8
C[C@H](CO)N1C[C@H](C)[C@H](CN(C)C)Oc2ccc(NS(C)(=O)=O)cc2CC1=O	3.7
C[C@H](CO)N1C[C@H](C)[C@H](CN(C)C(=O)Nc2cccc3ccccc23)OCCCC[C@H](C)Oc2ccc(N(C)C)cc2C1=O	4.9
COc1ccc(S(=O)(=O)N(C)C[C@H]2Oc3c(NC(=O)C4CCOCC4)cccc3C(=O)N([C@H](C)CO)C[C@H]2C)cc1	-0.7
C[C@H]1CCCCO[C@H](CN(C)C(=O)c2ccncc2)[C@@H](C)CN([C@@H](C)CO)C(=O)c2cc(NS(=O)(=O)c3ccccc3)ccc2O1	1.8
C[C@@H]1CN([C@H](C)CO)C(=O)Cc2cc(NC(=O)Cc3cn(C)c4ccccc34)ccc2O[C@H]1CN(C)C(=O)NC1CCCCC1	-2.2

Next entries follow.
canonical_smiles	Ran FRET
COc1ccc(S(=O)(=O)N(C)C[C@@H]2Oc3c(NC(=O)c4ccc(-c5nccs5)cc4)cccc3C(=O)N([C@H](C)CO)C[C@H]2C)cc1	-5.2
C[C@@H]1CN([C@H](C)CO)C(=O)c2cc(NC(=O)Nc3ccc(F)cc3)ccc2O[C@@H]1CN(C)Cc1ccc2c(c1)OCO2	-1.2
CNC[C@H]1Oc2ccc(NC(=O)CCC(F)(F)F)cc2CC(=O)N([C@H](C)CO)C[C@H]1C	0.2
C[C@@H]1CCCCO[C@H](CN(C)S(=O)(=O)c2ccccc2)[C@H](C)CN([C@H](C)CO)C(=O)c2cc(NS(C)(=O)=O)ccc2O1	?
C[C@@H]1CCCCO[C@H](CN(C)C(=O)c2ccncc2)[C@@H](C)CN([C@H](C)CO)C(=O)c2cc(NS(=O)(=O)c3ccccc3)ccc2O1	3.4
C[C@H](CO)N1C[C@H](C)[C@H](CN(C)Cc2ccncc2)Oc2ncc(-c3ccccc3)cc2C1=O	1.3
C[C@@H]1CCCCO[C@H](CN(C)C(=O)C2CCCCC2)[C@H](C)CN([C@@H](C)CO)C(=O)c2cc(NC(=O)Nc3ccccc3)ccc2O1	1.0
CC(C)NC(=O)Nc1ccc2c(c1)C(=O)N([C@@H](C)CO)C[C@H](C)[C@H](CN(C)C(=O)CCCN(C)C)OCCCC[C@H](C)O2	-2.6
COc1ccc(CN(C)C[C@@H]2Oc3ccc(NC(=O)Nc4ccc(C(F)(F)F)cc4)cc3CC(=O)N([C@H](C)CO)C[C@@H]2C)cc1	1.8
C[C@@H]1CCCCO[C@@H](CN(C)C(=O)Nc2cccc3ccccc23)[C@H](C)CN([C@@H](C)CO)C(=O)c2cc(NC(=O)c3ccncc3)ccc2O1	1.4

Later entries:
canonical_smiles	Ran FRET
COc1ccc(S(=O)(=O)N(C)C[C@@H]2Oc3ccc(NC(=O)Nc4cccc5ccccc45)cc3C(=O)N([C@@H](C)CO)C[C@H]2C)cc1	1.3
C[C@H](CO)N1C[C@H](C)[C@@H](CN(C)S(=O)(=O)c2ccc(C#N)cc2)OCc2cnnn2CCCC1=O	-1.9
C[C@H]1CN([C@@H](C)CO)C(=O)Cc2cc(NC(=O)NC3CCCCC3)ccc2O[C@@H]1CN(C)S(=O)(=O)c1ccccc1	-1.0
C[C@@H]1CN([C@H](C)CO)C(=O)CCCn2cc(nn2)CO[C@@H]1CN(C)Cc1ccc(Cl)c(Cl)c1	1.3
C[C@H](CO)N1C[C@H](C)[C@H](CN(C)C(=O)C2CCCCC2)OCCCC[C@H](C)Oc2ccc(NS(=O)(=O)c3ccccc3)cc2C1=O	6.4
C[C@H](CO)N1C[C@H](C)[C@@H](CN(C)C(=O)Nc2ccc3c(c2)OCO3)Oc2c(NS(=O)(=O)c3ccccc3)cccc2C1=O	3.3
COc1ccc(S(=O)(=O)N(C)C[C@@H]2Oc3ccc(NC(=O)CCN4CCOCC4)cc3C(=O)N([C@@H](C)CO)C[C@@H]2C)cc1	-1.2
CNC[C@@H]1OCCCC[C@H](C)Oc2ccc(NS(=O)(=O)c3cccs3)cc2C(=O)N([C@@H](C)CO)C[C@H]1C	3.4
COc1ccc(NC(=O)Nc2ccc3c(c2)C(=O)N([C@@H](C)CO)C[C@H](C)[C@H](CN(C)C)O3)cc1	4.3
Cc1noc(C)c1S(=O)(=O)N(C)C[C@H]1OCCCC[C@@H](C)Oc2ccc(N(C)C)cc2C(=O)N([C@@H](C)CO)C[C@@H]1C	-4.5

Continuation.
canonical_smiles	Ran FRET
C[C@H]1CCCCO[C@@H](CN(C)C(=O)CCC(F)(F)F)[C@@H](C)CN([C@@H](C)CO)C(=O)c2cc(N(C)C)ccc2O1	-2.7
CNC[C@@H]1Oc2c(NC(=O)C3CCOCC3)cccc2C(=O)N([C@H](C)CO)C[C@@H]1C	-2.7
Cc1noc(C)c1NC(=O)N(C)C[C@@H]1OCCCC[C@H](C)Oc2ccc(NC(=O)c3ccncc3)cc2C(=O)N([C@H](C)CO)C[C@@H]1C	-1.9
C[C@H]1CN([C@@H](C)CO)C(=O)c2cccc(NC(=O)C3CCOCC3)c2O[C@@H]1CN(C)C(=O)Nc1ccccc1	-1.3
C[C@H]1CN([C@@H](C)CO)C(=O)c2cccc(NC(=O)NC3CCCCC3)c2O[C@H]1CN(C)S(=O)(=O)c1ccc(Cl)cc1	4.1
CNC[C@@H]1Oc2ccc(NC(=O)CCN3CCOCC3)cc2CC(=O)N([C@@H](C)CO)C[C@H]1C	-1.3
C[C@@H]1CN([C@@H](C)CO)C(=O)c2cccc(NC(=O)c3ccncc3)c2O[C@@H]1CN(C)Cc1ccc(C(=O)O)cc1	2.0
C[C@H]1CCCCO[C@@H](CN(C)Cc2ccccc2)[C@@H](C)CN([C@@H](C)CO)C(=O)c2cc(NC(=O)CCC(F)(F)F)ccc2O1	-0.2
C[C@@H]1CN([C@H](C)CO)C(=O)c2cccc(N(C)C)c2O[C@H]1CN(C)C(=O)NC1CCCCC1	-6.2
C[C@@H]1CCCCO[C@@H](CN(C)C(=O)Nc2ccccc2)[C@@H](C)CN([C@H](C)CO)C(=O)c2cc(NC(=O)c3ccccc3)ccc2O1	?

New compounds follow
canonical_smiles	Ran FRET
C[C@@H]1CN([C@H](C)CO)C(=O)Cc2cc(NC(=O)Nc3ccc(F)cc3)ccc2O[C@@H]1CN(C)C(=O)NC1CCCCC1	-2.5
Cc1noc(C)c1NC(=O)N(C)C[C@@H]1Oc2ccc(N(C)C)cc2CC(=O)N([C@H](C)CO)C[C@H]1C	24.7*
C[C@H](CO)N1C[C@H](C)[C@H](CN(C)Cc2ccccc2)Oc2ncc(C#CCN(C)C)cc2C1=O	-0.6
C[C@@H]1CN([C@H](C)CO)C(=O)c2cc(NC(=O)C3CC3)ccc2O[C@H]1CN(C)C(=O)Nc1ccccc1	-0.9
C[C@H]1CN([C@@H](C)CO)C(=O)Cc2cc(NS(=O)(=O)c3ccccc3)ccc2O[C@H]1CN(C)S(=O)(=O)c1ccc(F)cc1	4.5
C[C@@H]1CN([C@@H](C)CO)C(=O)Cc2cc(NC(=O)NC3CCCCC3)ccc2O[C@@H]1CN(C)Cc1ccc2c(c1)OCO2	?
Cc1noc(C)c1S(=O)(=O)N(C)C[C@H]1Oc2ccc(N(C)C)cc2CC(=O)N([C@H](C)CO)C[C@@H]1C	0.0
CNC[C@@H]1Oc2ccc(NC(=O)Nc3ccc4c(c3)OCO4)cc2C(=O)N([C@@H](C)CO)C[C@@H]1C	-0.7
C[C@H]1CN([C@@H](C)CO)C(=O)c2cc(NC(=O)Nc3ccc(F)cc3)ccc2O[C@@H]1CN(C)C(=O)Nc1ccc(F)cc1	-1.6
C[C@H]1CN([C@@H](C)CO)C(=O)Cc2cc(NC(=O)Cc3ccccc3)ccc2O[C@@H]1CN(C)Cc1ccc(C(=O)O)cc1	0.0

Gathered by group, the compounds so far containing an aryl methoxy group
canonical_smiles	Ran FRET
COc1ccc(CN(C)C[C@H]2Oc3ccc(NS(=O)(=O)c4ccc(Cl)cc4)cc3C(=O)N([C@@H](C)CO)C[C@H]2C)cc1	4.5
COc1ccc(S(=O)(=O)N(C)C[C@H]2Oc3c(NC(=O)C4CCOCC4)cccc3C(=O)N([C@H](C)CO)C[C@H]2C)cc1	-0.7
COc1ccc(S(=O)(=O)N(C)C[C@@H]2Oc3c(NC(=O)c4ccc(-c5nccs5)cc4)cccc3C(=O)N([C@H](C)CO)C[C@H]2C)cc1	-5.2
COc1ccc(CN(C)C[C@@H]2Oc3ccc(NC(=O)Nc4ccc(C(F)(F)F)cc4)cc3CC(=O)N([C@H](C)CO)C[C@@H]2C)cc1	1.8
COc1ccc(S(=O)(=O)N(C)C[C@@H]2Oc3ccc(NC(=O)Nc4cccc5ccccc45)cc3C(=O)N([C@@H](C)CO)C[C@H]2C)cc1	1.3
COc1ccc(S(=O)(=O)N(C)C[C@@H]2Oc3ccc(NC(=O)CCN4CCOCC4)cc3C(=O)N([C@@H](C)CO)C[C@@H]2C)cc1	-1.2
COc1ccc(NC(=O)Nc2ccc3c(c2)C(=O)N([C@@H](C)CO)C[C@H](C)[C@H](CN(C)C)O3)cc1	4.3

The list continues.
canonical_smiles	Ran FRET
CC(C)NC(=O)N(C)C[C@H]1OCCCC[C@H](C)Oc2ccc(NC(=O)CCCN(C)C)cc2C(=O)N([C@@H](C)CO)C[C@H]1C	1.0
C[C@H]1CN([C@@H](C)CO)C(=O)c2cccc(NS(=O)(=O)c3cccs3)c2O[C@@H]1CN(C)C(=O)Nc1ccc(C(F)(F)F)cc1	-6.2
C[C@H]1CN([C@@H](C)CO)C(=O)c2cccc(NC(=O)C3CCOCC3)c2O[C@@H]1CN(C)CC1CC1	-0.1
C[C@H]1CN([C@@H](C)CO)C(=O)c2cc(NC(=O)Nc3ccc4c(c3)OCO4)ccc2O[C@@H]1CN(C)C(=O)NC1CCCCC1	?
COc1ccc(CN(C)C[C@H]2Oc3ccc(NC(=O)Nc4ccc(F)cc4)cc3C(=O)N([C@H](C)CO)C[C@@H]2C)cc1	?
C[C@@H]1CN([C@@H](C)CO)C(=O)Cc2cc(NC(=O)Nc3ccccc3)ccc2O[C@H]1CN(C)Cc1ccncc1	-5.0
COc1ccc(CN(C)C[C@@H]2Oc3c(NS(=O)(=O)c4cn(C)cn4)cccc3C(=O)N([C@H](C)CO)C[C@H]2C)cc1	-0.9
C[C@H](CO)N1C[C@H](C)[C@@H](CN(C)Cc2ccncc2)Oc2ccc(NC(=O)C3CC3)cc2CC1=O	-1.2
C[C@H](CO)N1C[C@H](C)[C@H](CN(C)S(=O)(=O)c2cn(C)cn2)Oc2ncc(-c3ccc(F)cc3)cc2C1=O	4.0
C[C@H]1CN([C@@H](C)CO)C(=O)c2cc(N(C)C)ccc2O[C@H]1CN(C)C(=O)Nc1ccc2c(c1)OCO2	-5.2

Next section
canonical_smiles	Ran FRET
CNC[C@H]1Oc2ccc(NC(=O)Nc3ccc(C(F)(F)F)cc3)cc2CC(=O)N([C@H](C)CO)C[C@H]1C	2.2
CNC[C@H]1OCCCC[C@H](C)Oc2ccc(NC(=O)NC(C)C)cc2C(=O)N([C@@H](C)CO)C[C@H]1C	-2.4
C[C@H](CO)N1C[C@H](C)[C@@H](CN(C)C)Oc2ccc(NC(=O)CCCN(C)C)cc2C1=O	1.6
C[C@@H]1CCCCO[C@@H](CN(C)Cc2ccncc2)[C@H](C)CN([C@H](C)CO)C(=O)c2cc(NS(C)(=O)=O)ccc2O1	0.7
C[C@@H]1CN([C@@H](C)CO)C(=O)c2cc(NC(=O)Nc3ccc4c(c3)OCO4)ccc2O[C@@H](C)CCCCO[C@@H]1CN(C)Cc1ccccc1	1.9
C[C@@H]1CN([C@@H](C)CO)C(=O)Cc2cc(NC(=O)C3CC3)ccc2O[C@@H]1CN(C)Cc1ccc2c(c1)OCO2	-0.6
